# HPGD block: inhibitors of human 15-hydroxyprostaglandin dehydrogenase (HPGD); Potency, µM, for inactives: at the highest dose activity change, negative = inhibition, usual class: inhibitors; P15428; purified HPGD, NADH fluorescence kinetic, PGE2 substrate; 150,000 tested, 4.3% active; active = well fitted inhibition curve with a large enough effect (not every such curve was filed as active); inconclusive = small, poorly fitted or top-dose-only effect, or another doubt; inactive = no such curve, though single readings can be large or run the other way;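 note: top concentration of the series not given in the record; plate controls included wells without enzyme; inactives centre near -10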
# Target sequence (P15428 whole entry, looked up): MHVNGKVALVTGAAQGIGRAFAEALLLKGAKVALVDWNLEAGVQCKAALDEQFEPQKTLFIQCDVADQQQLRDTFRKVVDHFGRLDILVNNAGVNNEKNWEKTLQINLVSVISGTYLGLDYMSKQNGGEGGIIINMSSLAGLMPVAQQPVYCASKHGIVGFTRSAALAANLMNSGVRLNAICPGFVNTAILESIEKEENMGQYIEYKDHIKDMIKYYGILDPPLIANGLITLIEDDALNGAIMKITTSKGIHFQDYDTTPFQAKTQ
#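 20 nM HPGD preincubated 15 min at room temperature with compound in 50 mM Tris-HCl pH 8, 0.01% Tween 20. Started with 1 mM NAD+ and 30 uM prostaglandin E2; NADH fluorescence (360/450 nm) read 5 times over 30-s intervals, last minus first.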
# The depositor's hits bear a star; ? = inconclusive; & = joins results of further samples; [ ] = dose if it differs, or a comment. % is set by controls: 0 for no effect and ±100 for the full control effect; potency is the fitted concentration of half-maximal effect. Some of the compounds tested; rates above refer to the full screens.
# The first four compounds (preview)
SMILES	HPGD block
CCOC(=O)c1ccc(CC(=O)c2ccc(O)cc2O)o1	-12%
CC(O)C(O)C(O)C(O)/C=N/NC(=O)c1ccccc1 (stereo not given)	-4%
C=CCOc1ccc(/C=N/N2C(=O)C(CC(=O)Nc3ccc(F)cc3F)SC2=NC)cc1 (stereo not given)	-23%
CS(=O)(=O)N(Cc1ccc(Cl)cc1)c1ccc(C(=O)NCCSc2ccccn2)cc1	-2%

# All compounds of this part, from the first entry:
SMILES	HPGD block
CCOC(=O)c1ccc(CC(=O)c2ccc(O)cc2O)o1	-12%
CC(O)C(O)C(O)C(O)/C=N/NC(=O)c1ccccc1 (stereo not given)	-4%
C=CCOc1ccc(/C=N/N2C(=O)C(CC(=O)Nc3ccc(F)cc3F)SC2=NC)cc1 (stereo not given)	-23%
CS(=O)(=O)N(Cc1ccc(Cl)cc1)c1ccc(C(=O)NCCSc2ccccn2)cc1	-2%
CCOc1ccc(C(=O)NCC(=O)OCc2ccc(F)cc2Cl)cc1	-2%
Cc1cccc(-c2noc(CCCC(=O)Nc3ccc(C(N)=O)cc3)n2)c1	2%
CC1C(=O)Nc2ccccc2N1C(=O)C1CC1 (stereo not given)	-2%
COC(=O)c1cc(Cl)c(NC(=O)/C=C/c2ccc(OC)cc2)cc1OC	?
O=C(/C=C/N1CCOCC1)c1cc2ccccc2o1	-14%
c1cncc(Oc2cccc(Oc3cccnc3)c2)c1	5%
O=C(CC(=O)N/N=C/c1ccccc1O)NCc1cccnc1	?
O=C(/C=C/c1ccc2c(c1)OCO2)Nc1c(C(=O)O)[nH]c2ccccc12	16µM*
Cc1ccc(C(=O)N/C(=C/c2ccc(-c3cccc([N+](=O)[O-])c3)o2)C(=O)NC(C)(C)C)cc1	-10%
CCOC(=O)CNc1nc(-c2ccncc2)nc2ccccc12	?
COc1cccc(-n2c(C)c(C(C)=O)c(C(C)=O)c2C)c1	-12%
COc1ccc(NC(=S)SC)cc1OC	-9%

# Three of the compounds above, with each value named.
O=C(/C=C/N1CCOCC1)c1cc2ccccc2o1
  HPGD block = -14%

Cc1ccc(C(=O)N/C(=C/c2ccc(-c3cccc([N+](=O)[O-])c3)o2)C(=O)NC(C)(C)C)cc1
  HPGD block = -10%

CCOC(=O)c1ccc(CC(=O)c2ccc(O)cc2O)o1
  HPGD block = -12%

# (further entries)
SMILES	HPGD block
COC(=O)c1nn(-c2ccc(OC)cc2)c(=O)cc1Oc1cccc(Cl)c1	-3%
CCn1ncc(Br)c1C(=O)Nc1sc2c(c1C(N)=O)CCC2	?
COCCN(CCOC)S(=O)(=O)c1ccc(C(=O)Nc2nc(C)c(C(C)=O)s2)cc1	-12%
CC1(C)CC2CC(C)(CN2S(=O)(=O)c2ccc(C(=O)Nc3cccc(S(=O)(=O)N4CCOCC4)c3)cc2)C1 (stereo not given)	?
O=C1c2cc(N3CCCC3)c([N+](=O)[O-])cc2C(=O)N1c1ccccc1	1%
COc1ccc(C2C(C#N)=C(N)OC(C(C)(C)C)=C2C#N)cc1OC (stereo not given)	?
BrC(=C\c1ccccc1)/C=N/Nc1nc(N2CCOCC2)nc(N2CCOCC2)n1	16µM*
Cn1nccc1CNC(=O)c1ccnn1C	-8%
O=C(COC(=O)c1cccnc1SCC(=O)NCc1ccccc1)NCc1ccccc1	?
COc1ccc(-c2nc(C)c(C(C)=O)n2O)cc1OC	-2%
COc1ccc(/C=C/C(=O)Oc2cccc(/C=N/NC(=O)COc3c(C)cccc3C)c2)cc1	-15%
O=C(CN1CCN(S(=O)(=O)c2ccc(Br)cc2)CC1)Nc1ccc(F)cc1F	-1%
Cc1cccc(OCCn2c(=O)n(C)c3ccccc32)c1	-12%
COC(=O)N1CCC[C@@]2(CCN(C(=O)Nc3cccc(C#N)c3)C2)C1	-2%
Cc1ccc(NC(=O)CSc2nc(N)c3cc4c(nc3n2)CCCC4)cc1	-4%
COc1cc(C2c3cc4c(cc3C(O)[C@H]3COC(=O)C23)OCO4)cc(OC)c1OC (stereo not given in full)	-1%&-22%

# Taken from above:
# Reading for O=C(CN1CCN(S(=O)(=O)c2ccc(Br)cc2)CC1)Nc1ccc(F)cc1F in HPGD block: -1%
# Reading for COc1ccc(/C=C/C(=O)Oc2cccc(/C=N/NC(=O)COc3c(C)cccc3C)c2)cc1 in HPGD block: -15%
# Reading for Cc1cccc(OCCn2c(=O)n(C)c3ccccc32)c1 in HPGD block: -12%
# Reading for COc1ccc(-c2nc(C)c(C(C)=O)n2O)cc1OC in HPGD block: -2%
# Reading for COc1cc(C2c3cc4c(cc3C(O)[C@H]3COC(=O)C23)OCO4)cc(OC)c1OC (stereo not given in full) in HPGD block: -1%&-22%

# Carrying on:
SMILES	HPGD block
CN(CCNC(=O)c1cc2c(=O)n(C)c3ccccc3c2n1C)Cc1ccccc1	?
Brc1ccc(Cn2c(-c3ccc(Br)o3)nc3ccccc32)o1	98%[activator]
Cc1cc(C)c(NC(=O)COC(=O)/C=C/c2cccc(C(F)(F)F)c2)c(C)c1	-4%
O=C(NNC(=O)c1cc(-c2ccccc2)nc2ccccc12)Nc1cccc(Cl)c1	-9%
O=C(COc1cccc2ccccc12)N/N=C/C=C/c1ccccc1	-13%
CCOC(=O)NCC(C)(C)CNC(=O)OCC	-6%
CCCn1c(SCC(=O)Nc2nnc(CC)s2)nnc1-c1ccco1	-8%
Cc1ccc(OCCn2c(=O)sc3ccccc32)cc1	-26%
COc1ccc(Cn2nnnc2CN2CCC(c3nc4ccccc4s3)CC2)cc1	-17%
COc1ccc(N2CCN(S(C)(=O)=O)CC2)cc1	3%
Cc1nc(NC(=O)c2cccc(-c3cc4ccccc4oc3=O)c2)ccc1Br	?
CC(=O)c1cccc(OCCN2C(=O)NC(C)(C)C2=O)c1	-13%
CC1CCCC(NC(=S)NC(=O)c2ccccc2Br)C1C (stereo not given)	-25%
COc1ccccc1C1N(c2ccc(Cl)cc2)C(=O)C2CCCN21 (stereo not given)	-11%
COC(=O)CCC/C=C1\SC[C@@H](NC(=O)c2ccccc2)C1NC(C)=O (stereo not given in full)	-9%
CC1CCCN(S(=O)(=O)c2ccc(NC(=O)Cn3nnc(-c4ccccc4F)n3)cc2)C1 (stereo not given)	-6%
Cc1oc(-c2cccs2)nc1CS(=O)CC(=O)NC1CCCCCC1 (stereo not given)	?
CCn1c(CCn2ccnc2C)n[nH]c1=S	-7%
C=C(C)CSc1nc2nc(C)cc(C)n2n1	-8%
Cc1cc(=O)oc2cc(NC(=O)c3cc4ccccc4o3)ccc12	?
CC(=O)NCC(=O)OCN1C(=O)c2ccccc2C1=O	-2%
Cc1cccc(NC(=O)Cn2c(=O)n(Cc3ccco3)c(=N)c3c4c(sc32)COC(C)(C)C4)c1	-13%
Cc1nn(CC(=O)Nc2ccc3c(c2)nc(CN2CCCCC2)n3C)c(=O)c2ccccc12	-7%
COc1ccccc1NC(=O)c1sc2ncn(Cc3cccc4ccccc34)c(=O)c2c1C	275%[activator]
CCOC(=O)c1sc(NC(=O)CSc2nnc(C(C)C)n2CC)nc1C	-6%
COc1c(OC(C)=O)ccc(/C=C/c2ccc3ccccc3n2)c1[N+](=O)[O-]	-12%
O=S(=O)(c1cccc2c(Cl)cccc12)N1CCCNCC1	-10%&-2%
CCOc1ccc(Nc2nc(Cc3nnc(SCC(=O)c4ccc(C)c(C)c4)o3)cs2)cc1	-10%
CCCNC(=O)C1CC(=O)N(c2ccc(OCC(=O)Nc3cccc(C)c3C)cc2)C1 (stereo not given)	-16%
Cc1cc(C)n(CCc2nc(-c3ccc(C)o3)cs2)n1	25µM*
CCOC(=O)Cn1c(C)cc(=O)c2cccc(C)c21	-6%
O=C1[C@@H]2[C@H](C(=O)N1Cc1ccco1)[C@H]1C=C[C@@H]2C1	-2%

# Next part, starting with the last 2 of the part before.
SMILES	HPGD block
CCOC(=O)Cn1c(C)cc(=O)c2cccc(C)c21	-6%
O=C1[C@@H]2[C@H](C(=O)N1Cc1ccco1)[C@H]1C=C[C@@H]2C1	-2%
CCOc1cc(S(=O)(=O)n2cc(-c3ccc(F)cc3)c(N)n2)cc(OCC)c1OCC	-10%
CCC1=NNc2cccc3c(OC)ccc1c23	14µM*
Cc1cc(NC(=O)CN2C(=O)NC3(CCCCC3)C2=O)no1	-9%
O=c1c2c3nc4ccccc4nc3n(Cc3ccccc3)c2ncn1Cc1ccco1	?
CCOC(=O)N1CCN(S(=O)(=O)c2ccc3c(c2)CCN3C(=O)CC)CC1	-6%
Nc1ccc(-c2nc3ccc([N+](=O)[O-])cc3[nH]2)cc1	-5%
CCOC(=O)c1c(CC(C)C)csc1NC(=O)C(C)C	1%
COc1cccc(N2CCN(CC(=O)NCc3cccs3)CC2)c1	-15%

# (further entries)
Compound | HPGD block
Cc1ccc(-c2nnc(NCc3ccccc3)c3ccccc23)cc1 | 3.2µM*
O=C1/C(=N\O)Cc2ccccc21 | -12%
CCOc1ccc(CCNC(=O)Cc2nn[nH]n2)cc1OCC | 5%
O=C(CN1C(=O)c2ccccc2C1=O)N1CCCCC1 | -5%
Cc1ccc(NC(=O)CSc2nnc(C)c(=O)n2N)c(C)c1 | -15%
O=C(O)CNC(=O)c1ccc(CO)o1 | -12%
COC(=O)c1c(C)oc2cc(Br)c(OCC(=O)C(C)(C)C)cc12 | -5%
O=S(=O)(/N=C(/c1ccc(Cl)cc1)N1CCOCC1)c1ccc(Cl)cc1 | -3%
N#Cc1cc(-c2ccccc2)nn1-c1ccccc1 | 13µM*
COc1ccc(-c2cc(C(=O)OCC(=O)c3ccc(C)c([N+](=O)[O-])c3)c3ccccc3n2)cc1 | ?
N#Cc1c(-c2ccco2)nc(SCC(=O)Nc2cccc(Cl)c2)[nH]c1=O | 18µM*
CC1CCN(S(=O)(=O)N2CCC(C(=O)N3CCC(N(C)CC4CCCO4)CC3)CC2)CC1 (stereo not given) | -8%
CC(=O)C1=C(O)C=C2Oc3c(C(C)=O)c(O)c(C)c(O)c3[C@]2(C)C1=O | -2%
COC(=O)COc1ccc(S(=O)(=O)Nc2cc(OC)ccc2OC)cc1 | -10%
CCOC(=O)/C(=N\Nc1cccc(Cl)c1)Sc1nnc(-c2ccc(OC)cc2)n1C | -18%
O=C(O)Cn1ccnc1 | -7%
CCOC(=O)C1=C(N)OC(C)=C(C#N)C1c1ccco1 (stereo not given) | -4%
CCn1c(SCC(N)=O)nnc1-c1ccc(OC)c(OC)c1 | -5%
CCC(CC)C(=O)Nc1cccc(C(=O)NCCc2ccc(S(N)(=O)=O)cc2)c1 | -7%
CC1=NN(C(=O)c2csc(C(C)C)c2)C(O)(C(F)(F)F)C1 (stereo not given) | -14%
CCOC(=O)Cn1c(CN2CC(C)OC(C)C2)nc2c1c(=O)n(C)c(=O)n2C (stereo not given) | -11%
CC1CCCN(CC(O)COCC2COc3ccccc3O2)C1 (stereo not given) | -5%
NC1=NC(=O)/C(=C/c2cn(Cc3ccccc3)c3ccccc23)S1 | 28µM*
Cc1ccc(S(=O)(=O)NCCOc2nc(N3CCOCC3)nc(N3CCOCC3)n2)cc1 | -15%
CSc1nc(-c2ccc(C)cc2)[nH]c1S(=O)(=O)c1ccccc1 | -14%
CCCC(C(=O)NC1CCCC1)N(Cc1ccc2c(c1)OCO2)C(=O)c1snc(C(N)=O)c1N (stereo not given) | -16%
COC(=O)CNC(=O)c1ccc(=O)oc1 | -22%
COCCCNC(=O)C1CCN(S(=O)(=O)N(CC(C)C)CC(C)C)CC1 | -4%
O=C1CN(C(=O)CSc2nc3ccccc3c(=O)n2Cc2ccc(F)cc2)c2ccccc2N1 | ?
COc1ccc(NC(=O)CSc2nnc(-c3ccccn3)n2N)c(OC)c1 | -7%
CCOC(=O)c1c(NC(=O)COC(=O)CNC(=O)c2ccco2)sc(C)c1C | -11%
O=C(CN1C(=O)c2ccccc2S1(=O)=O)N1CCN(c2ccccc2)CC1 | -13%
Cc1ccc(S(=O)(=O)N2CCC(=O)N(C(COCc3ccc(C(F)(F)F)cc3)Cc3ccccc3)CC2)cc1 (stereo not given) | -18%
CCCC(=O)Nc1ccc(C(=O)N/N=C/c2cccnc2)cc1 | -28%
CCC(=O)N1CCc2cc(S(=O)(=O)NC(C(=O)Nc3cccc(C)n3)C(C)C)ccc21 (stereo not given) | -12%
CCOc1ccc(-c2nnc(SCC(=O)N3CCN(c4ccccc4)CC3)o2)cc1 | -11%
CC(C)C(=O)N/N=C/c1ccc(OCc2ccccc2)cc1 | -5%
Clc1ccc(Nc2ncn[nH]2)cc1 | -11%
Cc1cc(C(=O)Cn2nnc3ccccc3c2=O)c(C)n1-c1c(C)n(C)n(-c2ccccc2)c1=O | -1%
CCOc1cccc(NCc2cc3c(C(C)(C)C)nn(-c4ccccc4)c3[nH]c2=O)c1 | -17%
COc1ccc(NC(=O)CC2C(=O)N(c3cccc(OC)c3)C(=O)N2CCC(C)C)cc1 (stereo not given) | -15%
O=C(c1ccccc1/S(=N/S(=O)(=O)c1ccccc1)N1CCOCC1)N1CCOCC1 (stereo not given) | -4%
Cc1ccc2nc(-c3ccc(NC(=O)CN4C(=O)c5ccccc5C4=O)cc3)sc2c1 | ?
O=C(/C=C/c1cccs1)c1ccc(NC(=O)c2cccc(Br)c2)cc1 | -21%
CC(C)NC(=O)COC(=O)c1ccc(Oc2ccccc2)cc1 | -8%
Cc1ccc(NC(=O)Cn2nnc(C(=O)NCc3ccccc3)c2N)cc1C | -7%
COCCNc1nnc(SCC(=O)c2ccc3c(c2)OCO3)s1 | ?
Cc1nnc(SCC(=O)Nc2nnc(SCc3cccc(Br)c3)s2)s1 | -22%
CSCCC(NS(=O)(=O)/C=C/c1ccccc1)C(=O)N1CCC(C)CC1 (stereo not given) | -7%
Cc1cc(Cl)ccc1OCc1n[nH]c(=S)n1C1CCCCC1 | 5µM*
CC1CC(=O)C2=C(C1)OC(N)=C(C#N)C2c1coc2ccccc2c1=O (stereo not given) | -7%
CCOC(=O)/C(=C\c1c[nH]c2ccccc12)NC(C)=O | -28%
CCOC(=O)c1[nH]cnc1C(=O)Nc1cccc(N)n1 | -11%

# Screening results: PubChem BioAssay, National Center for Advancing Translational Sciences (NCATS)
